# Screens (PubChem BioAssay)
# VDR inh = Inhibitors of the vitamin D receptor (VDR): qHTS; VDR-SRC2-3 peptide fluorescence polarization, 2 h; Vitamin D3 receptor (Homo sapiens), P11473; actives 0.93% (n = 400,000); Potency, µM, for inactives: max response, negative = inhibition, most hits filed as inhibitors; active = well fitted inhibition curve with a large enough effect; inconclusive = small, poorly fitted or top-dose-only effect, or another doubt; inactive = no such curve, though single readings can be large or run the other way; also: series mostly up to about 120 µM
# Target sequence (P11473 whole entry, looked up): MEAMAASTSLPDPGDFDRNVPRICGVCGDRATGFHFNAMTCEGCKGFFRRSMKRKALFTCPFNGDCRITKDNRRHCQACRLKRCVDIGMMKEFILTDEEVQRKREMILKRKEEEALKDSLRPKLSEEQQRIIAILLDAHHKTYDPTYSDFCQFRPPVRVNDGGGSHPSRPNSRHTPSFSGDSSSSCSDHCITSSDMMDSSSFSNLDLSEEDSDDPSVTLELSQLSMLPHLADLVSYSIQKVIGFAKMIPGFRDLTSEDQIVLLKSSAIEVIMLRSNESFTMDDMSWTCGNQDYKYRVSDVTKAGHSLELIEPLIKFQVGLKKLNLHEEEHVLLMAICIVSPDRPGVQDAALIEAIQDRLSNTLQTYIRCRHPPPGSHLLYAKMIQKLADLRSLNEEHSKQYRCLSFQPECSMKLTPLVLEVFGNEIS
#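 Inhibition of the VDR/SRC2-3 peptide interaction is quantified by fluorescence polarization. Compounds (23 nl, pintool) incubate with the reagents for 2 hours at ambient room temperature.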
# Starred values were filed as active, the others as inactive; ? = inconclusive; & = joins results of further samples. % is scaled to controls: 0 for no effect and ±100 for the full control effect; potency is read from the fitted curve at half-maximal effect.
SMILES,VDR inh
O=C(COc1ccccc1Cl)OCC(=O)N1CCN(S(=O)(=O)c2ccccc2)CC1,-1%
COC(=O)N[C@@H](CCc1ccccc1)[C@]1(C(=O)OC)CCCC1=O,5%
CC(C)(C)Cn1c(=O)[nH]c(=O)c2cc([N+](=O)[O-])cnc21,9%
N#CC1=C(N)Oc2n[nH]c(-c3cccs3)c2C1c1ccoc1 (configuration not stated),-24%
Cn1cc(C(=O)NCCc2ccccc2)c(=O)c2cc(S(=O)(=O)N3CCOCC3)ccc21,?
COc1ccccc1C(=O)NCCSc1c(C)[nH]c2ccccc12,-16%
O=C(NCc1cccc(C(F)(F)F)c1)N1CCN(S(=O)(=O)c2ccccc2F)CC1,-6%
COc1cc([N+](=O)[O-])cc(/C=N/NC(=O)CSc2nnc(-c3ccccc3)n2C)c1O,7%
O=C(N/N=C/c1ccco1)C1CCCC1,-1%
CC(=O)Oc1cc2c(C(=O)NCCN3CCOCC3)c(C)oc2c2ccccc12,22%
COC(=O)c1ccccc1NC(=O)C(C)Oc1ccccc1 (configuration not stated),?
Cc1cc2ccccc2n1CCNCc1c(C(=O)N2CCOCC2)nc2ccccn12,20%
Cn1c(=O)c2c(ncn2CC(=O)Nc2cc(S(=O)(=O)N3CCCCC3)ccc2Cl)n(C)c1=O,-8%
COC(=O)CC1=NN(c2ccccc2)C(=O)C1,3%
COc1cc(C2C(=O)N(C3CCCCC3)CC(=O)N2C2CCCC2)ccc1OC(C)C (configuration not stated),6%
COc1ccc(CCNC(=O)C2CCN(S(=O)(=O)c3ccc(OC)c(OC)c3)CC2)cc1OC,1%
COc1ccc(N2CCN(CC(=O)Nc3ccc(C)cc3)CC2)cc1,?
Cc1cc(C)c(C(=O)N2CCCC(N3CCN(c4cccc(C(F)(F)F)c4)CC3)C2)o1 (configuration not stated),-12%
CN(CCCC(=O)NCc1ccccc1)S(=O)(=O)c1ccc([N+](=O)[O-])cc1,-18%
CCc1ccccc1N(CC(=O)NC1CCCC1)C(=O)CNC(=O)c1cccs1,-9%

# Among those listed so far, 2 contain an aryl thioether with sulfur outside any ring.
SMILES,VDR inh
COc1ccccc1C(=O)NCCSc1c(C)[nH]c2ccccc12,-16%
COc1cc([N+](=O)[O-])cc(/C=N/NC(=O)CSc2nnc(-c3ccccc3)n2C)c1O,7%

# Further results:
SMILES,VDR inh
O=C(COc1cccc(Cl)c1Cl)NC1CC1,-2%
COc1ccccc1N(C)S(=O)(=O)c1ccc(C(=O)Nc2ccc3nc(C)sc3c2)cc1,-13%
CCOc1ccc(/C=N/NC2=NCCCCC2)cc1,-1%
Cc1nc2ccccc2c(=O)n1/N=C/c1cccnc1,29%
N#CC1=C(N)OC2=C(C(=O)CCC2)C1c1cc2c(cc1Br)OCO2 (configuration not stated),-10%
Cc1ccc(C(=O)OCC(=O)Nc2ccc3c(c2)OCO3)c(O)c1,1%
Cc1ccccc1OCCC(=O)Nc1cc(S(=O)(=O)N2CCCCC2)ccc1N1CCN(C)CC1,8%
C#CCOCCOCCOCCNc1nc(N2CCN(C(=O)Cn3cc(CCO)nn3)CC2)nc(N2CCN(C(=O)[C@H]([C@@H](C)CC)n3cc(CCCN=C(N)N)nn3)CC2)n1,-15%
O=C(/C=C/c1cccs1)N1CCC2(CC1)Oc1ccc(Cl)cc1C(=O)C21CC(c2ccccc2)=NO1 (configuration not stated),9%
CC(=O)N1CCN(c2ccc([N+](=O)[O-])c(NCC3CCCO3)c2)CC1 (configuration not stated),1%
COc1cc(-c2nnc(COc3ccc4cc(Br)ccc4c3)o2)cc(OC)c1OC,-8%
CCC(=O)c1c[nH]c(C(=O)NCCc2ccccn2)c1,2%
Cc1ccccc1N/N=C1\CCCNC1=O,-6%
O=C(Nc1cc(-c2nc3ccccc3o2)ccc1Cl)c1cc([N+](=O)[O-])ccc1N1CCOCC1,2%
CCOc1cccc2cc(C(=O)NCc3ccc(Cl)cc3)c(=N)oc12,-3%
O=C(NC(=S)NC1CCCCC1)c1ccccc1,-5%
Nc1ccnn1Cc1cccnc1,-1%
COc1ccc(Br)cc1CNC(=O)C1CCCN(S(=O)(=O)N2CC(C)CC(C)C2)C1 (configuration not stated),-13%
O=C(O)CCCCCn1c(O)c(C=C2N=c3ccccc3=N2)sc1=S,1%
CCOc1ccc(C(=O)CN2CCN(S(=O)(=O)c3ccc(Cl)cc3)CC2)cc1,-11%
O=C(Nc1ccccc1C(F)(F)F)C1(S(=O)(=O)c2ccc(Cl)cc2)CC1,-5%
Cc1c(NC(=O)c2ccc(S(=O)(=O)N(C)c3ccccc3)cc2)c(=O)n(-c2ccccc2)n1C,17%
O=C(CCC(=O)c1cccs1)OCc1ccc([N+](=O)[O-])cc1,4%
COc1ccc(C(C)(C)C)cc1NC(=S)NCCN1CCOCC1,6%
CCc1cccc(C)c1NC(=O)C1CN(S(=O)(=O)c2ccccc2)CCN1S(=O)(=O)c1ccccc1 (configuration not stated),4%
Cc1cc(C)c(NC(=O)COc2ccc3c(C)cc(=O)oc3c2)c(C)c1,-7%
CCCc1cc(=O)n2[nH]c(-c3ccc(Cl)cc3)cc2n1,-2%
Cn1ncc2c(N3CCCCC3)nc(NCCCO)nc21,5%
Cc1cc(C)cc(N(CC(=O)NC2CCCC2)C(=O)CCC(=O)Nc2nccs2)c1,10%
CCN(CC)C(=O)CNC(=O)Cc1ccc(Cl)cc1,-3%
O=C(CCNC(=O)c1ccccc1Cl)Nc1cccc(C(F)(F)F)c1,-8%
CC(C)C(C)NC(=O)COc1ccc(Sc2ccc(OCC(=O)NC(C)C(C)C)cc2)cc1 (configuration not stated),-10%
Cc1ccccc1CC(=O)Nc1ccc2c(C)cc(=O)oc2c1,-17%
CC(C)(C)c1cc(CCC(=O)Nc2ccncc2)cc(C(C)(C)C)c1O,4%
CCCSc1ncc(Cl)c(C(=O)N2CCN(c3ccc(OC)cc3)CC2)n1,-1%
O=C(Cc1ccc(Cl)cc1)Nc1ncc([N+](=O)[O-])s1,-3%
O=C(C1CC(=O)N(c2ccc3c(c2)OCCO3)C1)N1CCCC(C(F)(F)F)C1 (configuration not stated),2%
COc1ccc(/C=N/n2cnc3c([nH]c4ccc(C)cc43)c2=O)cc1CN1CCCC1,0%
Cc1cc(C(=O)NCCCN2CCN(C3CCCCC3)CC2)n(-c2ccccc2)n1,-22%
CCCc1nnc(NC(=O)CCC(=O)NC2CCCc3ccccc32)s1 (configuration not stated),1%
Cc1cc(NC(=O)CN2C(=O)c3cccnc3Sc3ccccc32)ccc1Br,1%
CN(C)CCNC(=O)c1ccc2c(=O)n3c(nc2c1)CCCCC3,12%
COc1ccccc1OCC(=O)Nc1ccc(Cl)cc1,-6%
Cc1ccc(Cl)cc1NC(=O)[C@@H]1CCC(=O)N1C1OC(=O)c2ccccc21 (some centres not stated),-8%
Cc1onc(-c2c(Cl)cccc2Cl)c1C(=O)NCc1ccco1,?
CCOc1ccc(N(CC(=O)Nc2ccc(OC)cc2OC)S(=O)(=O)c2c(C)[nH]c(=O)[nH]c2=O)cc1,7%
CC(C)C(c1nnnn1Cc1ccc(F)cc1)N1CCN(c2ccc(O)cc2)CC1 (configuration not stated),3%
CCSc1cc(Cl)nc(N)n1,-12%
Fc1ccc2c(Cl)c(-c3nnc(-c4cccs4)o3)sc2c1,4%
CCOc1ccc(N2CC(C(=O)Nc3ccccc3N3CCOCC3)CC2=O)cc1 (configuration not stated),-3%

# Next part:
SMILES,VDR inh
CN1CCN(C(=O)/C(=C/c2ccc(F)cc2)c2ccsc2)CC1,-3%
CCC1(CC)NC(=O)N(CC(=O)OCC(=O)Nc2ccc(OC(F)(F)F)cc2)C1=O,-13%
O=c1c(-c2ccccc2)nc2cnc(Nc3ccccc3)nc2n1Cc1cccs1,-2%
C#CCOCCOCCOCCNc1nc(N2CCN(C(=O)CCCCCCCCCCNC(=O)[C@H](CCCCN)n3cc(CCO)nn3)CC2)nc(N2CCN(C(=O)CCCCCCCCCCNC(=O)[C@@H]([C@H](C)O)n3cc(C)nn3)CC2)n1,-10%
CC(C)c1ccc(N(CC(=O)NC2CCCC2)C(=O)CCC(=O)Nc2ccccn2)cc1,-30%
CC1CCC(NC(=O)c2ccc3c(c2)N(Cc2ccccc2F)C(=O)c2ccccc2S3)CC1 (configuration not stated),12%
COc1ccccc1/C=C/c1nc(C#N)c(N2CCCCC2)o1,15%
Cc1ccc(C)c(CN2C(=O)c3ccccc3Sc3ccc(C(=O)NCc4ccc5c(c4)OCO5)cc32)c1,-7%
CC(C)N1CCc2c(sc(NC(=O)c3ccc(S(=O)(=O)N(C)C4CCCCC4)cc3)c2C(N)=O)C1,2%
Cc1c(C(=O)N2CCN(S(=O)(=O)c3ccccc3)CC2)oc2ccccc12,9%

# Reprinted at random: 7 compounds from above
SMILES,VDR inh
CCOc1cccc2cc(C(=O)NCc3ccc(Cl)cc3)c(=N)oc12,-3%
CN(CCCC(=O)NCc1ccccc1)S(=O)(=O)c1ccc([N+](=O)[O-])cc1,-18%
C#CCOCCOCCOCCNc1nc(N2CCN(C(=O)Cn3cc(CCO)nn3)CC2)nc(N2CCN(C(=O)[C@H]([C@@H](C)CC)n3cc(CCCN=C(N)N)nn3)CC2)n1,-15%
O=C(O)CCCCCn1c(O)c(C=C2N=c3ccccc3=N2)sc1=S,1%
CC(C)(C)Cn1c(=O)[nH]c(=O)c2cc([N+](=O)[O-])cnc21,9%
Nc1ccnn1Cc1cccnc1,-1%
Cc1cc(NC(=O)CN2C(=O)c3cccnc3Sc3ccccc32)ccc1Br,1%

# (continued)
SMILES,VDR inh
COc1ccc(CNC(=O)CCCNC(=O)c2ccc(Cl)cc2)cc1OC,-2%
COc1ccc(C2(CCN)CC(C)N(C)CC2C)cc1 (configuration not stated),14%
COc1ccc(S(=O)(=O)N2CCC(C(=O)NN3CCCCC3)CC2)cc1OC,-25%
COCCNC(=O)C(c1ccccc1)N(C(=O)Cn1nnc2ccccc21)c1cccnc1 (configuration not stated),6%
COc1cccc(C(C(=O)NC(C)(C)C)N(Cc2ccc(C)cc2)C(=O)CCC(=O)Nc2cc(C)on2)c1OC (configuration not stated),-20%
Cc1ccc2scc(N3CCN(c4ccc(F)cc4)CC3)c(=O)c2c1,4%
Cc1oc2ncnc(N)c2c1C,-1%
Cc1cc(=O)oc2c3c(cc(OCC(=O)N[C@@H](CC(C)C)C(=O)O)c12)OC(C)(C)CC3,-3%
COc1cc(NC(=O)c2nn(C)c3c2CS(=O)(=O)c2ccccc2-3)cc(OC)c1,2%&-4%
COc1cccc(CN2CCNC(=O)C2CC(=O)N(C)CCC2CCOCC2)c1 (configuration not stated),-4%
Cc1ccc(S(=O)(=O)Nc2ccc(S(=O)(=O)Nc3nccs3)cc2)c([N+](=O)[O-])c1,-15%
O=C(NCC1CCCO1)C(=O)N/N=C/c1cc(Cl)ccc1O (configuration not stated),-7%
O=C(COC(=O)c1ncc(Cl)c(Cl)c1Cl)NCCc1ccccc1,-6%
CCc1ccc(NC(=O)c2cc3c(COC(C)=O)cnc(C)c3oc2=O)cc1,-2%
CCC(C)(C)C1CCC2(CC1)NC(=O)N(CC(=O)N(C)Cc1ccc(OC(F)F)cc1)C2=O (configuration not stated),-5%
CCOc1ccc(NC(=O)CSc2nc(=O)n(Cc3cccnc3)c3c2CCC3)cc1,0%
N/C(=N\OC(=O)c1ccco1)c1ccccn1,-13%
CC(=O)c1cnc2nc(SCc3ccccc3C)nn2c1C,5%
COc1ccc(C)cc1S(=O)(=O)NCCN1CCOCC1,2%
CCn1cc(Cl)c(C(=O)NNC(=O)CCn2cc([N+](=O)[O-])cn2)n1,0%
O=C(NCc1c(Cl)cccc1Oc1ccccc1)c1ccccc1,16%
Cc1ccc(C)c(NC(=O)CN(C)S(=O)(=O)c2ccccc2)c1,5%
COc1cccc(-c2nn(-c3ccccc3)cc2CN(C)Cc2c(C)nc3ccccn23)c1,15%
Cc1cccc(Oc2ccc(NC(=O)C3CC=CCC3C(=O)O)cc2)c1 (configuration not stated),5%
O=[N+]([O-])c1ccccc1S(=O)(=O)Nc1cccc(-c2ccc3nncn3n2)c1,-4%
Cc1cc(C)nc(/N=C(\NC(=O)C(C)(C)C)Nc2ccc(F)cc2)n1,9%
CCOC(=O)N1CCC(NC(=O)c2cc(C(=O)NC3CCCC3)ccc2CO)CC1,-25%
O=C(CNCc1ccc(Cl)cc1)Nc1ccc2c(c1)OCCO2,-23%
CC(=O)c1sc(NC(=O)COc2ccccc2)nc1C,-20%
CC(=O)c1c(C)[nH]c(C(=O)CN2CCN(S(=O)(=O)c3ccccc3)CC2)c1C,7%
Cc1ccccc1OCCCC(=O)NC1CCCCC1,-3%
CCCCn1c(N)c(N(CC)C(=O)c2cc(C)cc(C)c2)c(=O)[nH]c1=O,14%
O=C1C2C3C=CC(C3)C2C(=O)N1CCCCCCN1C(=O)C2C3C=CC(C3)C2C1=O (configuration not stated),0%
COc1ccc(CCNC(=O)C2CCN(S(=O)(=O)N3CCC(C)CC3)CC2)cc1OC,2%
Cc1ccc(NC(=O)CCNC(=O)c2ccc([N+](=O)[O-])cc2)cc1S(=O)(=O)N(C)C,8%
Cc1ccc(S(=O)(=O)N2CCCCC2)cc1NC(=O)COc1ccccc1F,20%
c1ccc(C[C@H]2CN=C(Nc3ccccc3)N2CC2CCC2)cc1,-10%
CC(=O)N/C(=C\c1ccccc1)C(=O)OCC(=O)Nc1cc(S(=O)(=O)N(C)C)ccc1C,1%
N#C/C(=C\c1cccs1)C(=O)N1CCOCC1,-2%
COc1ccc(/C=C2/SC(=S)N(NS(=O)(=O)c3ccccc3)C2=O)cc1,?

# Structural class: the compounds so far with bromine
SMILES,VDR inh
N#CC1=C(N)OC2=C(C(=O)CCC2)C1c1cc2c(cc1Br)OCO2 (configuration not stated),-10%
COc1cc(-c2nnc(COc3ccc4cc(Br)ccc4c3)o2)cc(OC)c1OC,-8%
COc1ccc(Br)cc1CNC(=O)C1CCCN(S(=O)(=O)N2CC(C)CC(C)C2)C1 (configuration not stated),-13%
Cc1cc(NC(=O)CN2C(=O)c3cccnc3Sc3ccccc32)ccc1Br,1%

# Not all compounds are listed (hit frequency here may not be typical).
